Six1-Eya2 inh – qHTS Assay for Inhibitors of the Six1/Eya2 Interaction | AlphaScreen GST-Six1/His-Eya2 binding, biochemical; hits give low values; control for the full effect not named in the record | activity change, % (concentration not given with the values) | 0.56% of 360,000 active | Homeobox protein SIX1 (Homo sapiens) + Protein phosphatase EYA2 (Homo sapiens), …; in the data active = activity change below about -65%; inconclusive = about -30% to -65%; inactive = above about -30%; further: on the % scale 0 is the no-effect control and ±100 the full control effect
Target sequence (O00167 whole entry, looked up): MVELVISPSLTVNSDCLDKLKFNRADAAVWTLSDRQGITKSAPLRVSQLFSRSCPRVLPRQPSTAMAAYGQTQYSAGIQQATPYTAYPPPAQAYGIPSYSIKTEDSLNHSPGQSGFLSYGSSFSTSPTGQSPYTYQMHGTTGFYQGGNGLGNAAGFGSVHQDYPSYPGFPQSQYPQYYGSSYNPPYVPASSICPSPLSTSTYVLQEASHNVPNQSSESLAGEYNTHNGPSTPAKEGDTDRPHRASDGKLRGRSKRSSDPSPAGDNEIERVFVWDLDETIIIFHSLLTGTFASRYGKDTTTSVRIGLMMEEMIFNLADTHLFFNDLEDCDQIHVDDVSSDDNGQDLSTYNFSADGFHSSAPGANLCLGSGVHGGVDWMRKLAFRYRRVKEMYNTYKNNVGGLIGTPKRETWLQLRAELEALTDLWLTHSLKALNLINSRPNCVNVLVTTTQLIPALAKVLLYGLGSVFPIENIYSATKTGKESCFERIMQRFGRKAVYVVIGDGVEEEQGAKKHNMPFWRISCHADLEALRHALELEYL
Target sequence (Q15475 whole entry, looked up): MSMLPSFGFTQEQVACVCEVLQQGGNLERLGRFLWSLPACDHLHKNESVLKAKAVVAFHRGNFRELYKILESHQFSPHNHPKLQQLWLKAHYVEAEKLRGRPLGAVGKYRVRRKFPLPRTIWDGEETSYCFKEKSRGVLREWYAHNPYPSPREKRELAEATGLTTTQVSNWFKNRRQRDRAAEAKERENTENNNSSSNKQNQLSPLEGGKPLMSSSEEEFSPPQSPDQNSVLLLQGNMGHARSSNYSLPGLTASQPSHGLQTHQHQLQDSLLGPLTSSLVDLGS
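AlphaScreen luminescence read after one hour at 37 °C in darkness. Pin-transferred compounds met GST-Six1 and His-Eya2 protein (5X stock 250 nM/500 nM) plus glutathione donor and Ni-chelate acceptor beads (5X, 50 ug/mL).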
D2 ag – Beta-Arrestin HTS for Positive Allosteric Modulators of the Human D2 Dopamine Receptor: Agonists | D(2) dopamine receptor (Homo sapiens), P14416 | DiscoveRx PathHunter D2 beta-arrestin, luminescence, 90 min; 100% = 57 uM dopamine signal | activation, % (concentration not given with the values) | 0.084% of 360,000 active; in the data active = activation above about 40%; inconclusive = about 15% to 40%; inactive = below about 15%; further: compound concentration not given in the record; the text of the record calls up to 30% inactive
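Agonist mode: compounds alone added to overnight-plated D2 PathHunter cells for 90 min at 37 C, with 57 uM final dopamine (EC100) defining full response. Beta-arrestin recruitment detected by chemiluminescent reagent, read after 1 h at ambient temperature.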
TRPV1 PAM – HTS Assay for Compounds that Act as Potentiators of the Vanilloid Receptor 1. TRPV1-expressing cells, Fluo-8 calcium influx, capsaicin EC20 potentiation; host cell line not named in the record; control for the full effect not named in the record. AID 540277, 2011. 0.02% of 320,000 active. potentiation, % at 8.33 µM; active means potentiation above 80%; inconclusive means 30% to 80%; inactive means below 30%; further: 0% is about no effect
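TRPV1-expressing cells were cultured overnight at 35.5C and loaded with Fluo-8 calcium dye for 40 to 90 min at room temperature. After a 10 s baseline, compound was added and calcium influx was read kinetically for 3 min (ex 480/em 520 nm).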
D2 PAM – Beta-Arrestin HTS for Positive Allosteric Modulators of the Human D2 Dopamine Receptor: Potentiators. D(2) dopamine receptor (Homo sapiens), P14416. DiscoveRx D2 beta-arrestin cells, luminescence, 90 min; 100% = 57 uM dopamine signal. potentiation, % (test concentration not listed). 0.23% of 360,000 active. AID 624464, 2012; active = potentiation of 50% or more; inconclusive = 30% to 50%; inactive = 30% or less;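 further: compound concentration not given in the record; tested on top of an EC20 dose of dopamine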
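PathHunter beta-arrestin assay in DiscoveRx D2 cells. Compounds were added with an EC20 of dopamine (50 nM final) for 90 min at 37 deg C. Luminescence was read 1 h after detection reagent, with 57 uM dopamine as the EC100 control.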
CtBP-E1A inh – qHTS Assay for Inhibitors of the CtBP/E1A Interaction. AlphaScreen GST-E1A/His-CtBP binding, 1536-well; hits give low values; control for the full effect not named in the record. activity change, % (concentration not given with the values). 0.49% of 340,000 active. AID 651724, 2012; in the data active means activity change below about -65%; inconclusive means about -30% to -65%; inactive means above about -30%; further: on the % scale 0 is the no-effect control and ±100 the full control effect
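Protein mix (5X: 125 nM each GST-E1A, His-CtBP) was incubated with pinned compound 2 h at 37 deg C in dark, in 50 mM Tris pH 8.0 buffer with 300 mM NaCl. Glutathione donor and nickel acceptor beads followed; AlphaScreen signal read after 1 h.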
PINK1 modulator – A Quantitative High throughput Screen to Identify Chemical Modulators of PINK1 Expression; PINK1 immunofluorescence, high-content cytometry, 24 h; Potency, µM (top dose mostly 76.6 µM), without a hit: at the highest dose activation (PINK1 increase), usual class: activators; 0.2% of 410,000 active; active = well fitted activation curve with a large enough effect; inconclusive = small, poorly fitted or top-dose-only effect; inactive = flat fitted curve, though single readings scatter; cell line not stated here;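 further: potency means the concentration at half of the fitted maximal effect; % of control where 0% means no effect; nearly all actives have a fitted effect of over 65% in size; a mitochondrial uncoupler was the plate control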
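PINK1 protein level read as immunofluorescence by microplate cytometer in a fixed, stained stable cell line after 24 h exposure to five compound concentrations, with CCCP as control.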
Sfp PPTase inh – qHTS Assay for Inhibitors of Bacillus subtilis Sfp phosphopantetheinyl transferase (PPTase); Potency, µM, inactives show max response, negative = inhibition, usual class: inhibitors; AID 1490, 2009; 3.5% of 310,000 active; Biochemical Sfp PPTase activity, qHTS; 4'-phosphopantetheinyl transferase ffp (Bacillus subtilis), Q9F4F7; active means well fitted inhibition curve with a large enough effect; inconclusive means small, poorly fitted or top-dose-only effect, or another doubt; inactive means no such curve, though single readings can be large or run the other way;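 further: the enzyme is Sfp with the accession as filed and its product quenches rhodamine fluorescence; potency means the concentration at half of the fitted maximal effect; 0% = enzyme reaction without inhibitor and -100% = no enzyme wells; top concentration of the series not given in the record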
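Compounds were incubated with enzyme (final 15 nM) for 15 min at room temperature before substrate addition started the reaction. Fluorescence at 525 nm excitation, 598 nm emission was recorded immediately and after 30 minutes.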
* = called active by the depositor; ? = inconclusive; . = no result given; & = joins results of further samples; [ ] = remark or other dose. The order is random, and some 3.7% of all compounds hit somewhere here.

SMILES	Six1-Eya2 inh	D2 ag	TRPV1 PAM	D2 PAM	CtBP-E1A inh	PINK1 modulator	Sfp PPTase inh
COc1cccc(NC(=O)CCC2CCN(C(=O)c3scnc3C)CC2)c1	-3	-4.9	7	-8	1	0.5%	3%
O=C(NCc1cccnc1)C1CC(=O)N(CCc2ccccc2)C1 (stereo not given)	4	-0.5	-5	-7	7	0.6%	5%
O=C(N/N=C\c1ccccn1)c1ccccc1O	?	-3.0	-10	-13	?	4.7%	?
CC(=O)Nc1cccc(N)c1	4	4.7	-6	-4	2	1.1%	.
Cc1csc(NC(=O)CSc2nnc(NC(=O)COc3ccccc3)s2)n1	-2	-0.6	3	3	6	12%	19%
CCCCCc1cc(O)c2c(C)cc(=O)oc2c1	2	6.4	10	30	2	11µM*	6%
CC(Oc1ccccc1)C(=O)NC1CCCCCCC1 (stereo not given)	5	4.1	-9	-11	12	2.5%	4%
O=C1CCCN1CCCNC(=S)Nc1cccc2ccccc12	-4	0.4	2	-3	-9	-1.1%	17%
CCc1ccc(OCCNc2cc(N3CCNC(C)C3)ccc2[N+](=O)[O-])cc1 (stereo not given)	?	2.6	7	-2	-26	-0.5%	.
Cc1nnc(NC(=O)CSc2ccc(-c3cccnc3)nn2)s1	-14	7.1	-44	-2	-3	-1.9%	40µM*
Cc1nc(-c2ccncc2)nc(NCCNc2ccc(C(F)(F)F)cn2)c1Cl	-17	-2.1	-6	-6	-26	9.1%	-10%
Cc1ccc(NC(=O)CCN2CCN(C)CC2)cc1	2	0.8	-5	-5	-6	1.0%	5%
Cc1ccccc1-n1c(-c2ccc(Cl)cc2)cnc1SCC(=O)NC1CCS(=O)(=O)C1 (stereo not given)	-15	1.6	3	-2	-24	0.2%	-8%
Cc1ccc(S(=O)(=O)NCCc2cccs2)cc1	2	-2.5	-9	-6	10	-0.6%	9%
CS(=O)(=O)N1CCC(C(=O)N2CCN(c3cccc(Cl)c3)CC2)CC1	0	3.1	-27	-4	5	8.3%	10%
CN(C)C(=S)N=c1ssc(=S)n1Cc1ccco1	4	-9.2	.	-32	10	10%	.
Cn1nc(C(=O)OCC(=O)c2ccc(Br)cc2)c2ccccc2c1=O	2	-7.2	1	-17	-2	3.6%	.
CS(=O)(=O)Nc1ccc(-c2nnc3n2CCCCC3)cc1	-19	-14	1	-7	-10	-0.8%	10%
COc1ccc(-c2c(C#N)c(N)nc3c2CCc2ccccc2-3)cc1OC	46	-4.0	.	-25	32	-0.6%	-18%
NC(Cc1ccc(C(F)(F)F)cc1)c1csc(NC(=O)Nc2ccccc2Oc2ccccc2)n1 (stereo not given)	2	-0.5	.	0	2	-1.2%	.

Next section, overlapping the part above by five compounds.
SMILES	Six1-Eya2 inh	D2 ag	TRPV1 PAM	D2 PAM	CtBP-E1A inh	PINK1 modulator	Sfp PPTase inh
CN(C)C(=S)N=c1ssc(=S)n1Cc1ccco1	4	-9.2	.	-32	10	10%	.
Cn1nc(C(=O)OCC(=O)c2ccc(Br)cc2)c2ccccc2c1=O	2	-7.2	1	-17	-2	3.6%	.
CS(=O)(=O)Nc1ccc(-c2nnc3n2CCCCC3)cc1	-19	-14	1	-7	-10	-0.8%	10%
COc1ccc(-c2c(C#N)c(N)nc3c2CCc2ccccc2-3)cc1OC	46	-4.0	.	-25	32	-0.6%	-18%
NC(Cc1ccc(C(F)(F)F)cc1)c1csc(NC(=O)Nc2ccccc2Oc2ccccc2)n1 (stereo not given)	2	-0.5	.	0	2	-1.2%	.
CCN(CC)S(=O)(=O)c1ccc(OCC(=O)NC2CCS(=O)(=O)C2)c([N+](=O)[O-])c1 (stereo not given)	1	8.9	-5	-2	.	-1.2%	12%
CC1=CCC2C(=O)N(c3ccc(OC(=O)c4ccco4)cc3)C(=O)C2C1 (stereo not given)	-7	-2.9	0	-8	2	0.5%	13%
O=C(Cc1ccc(Cl)cc1Cl)Nc1ccc(OC(F)F)c(Cl)c1	6	-0.5	4	-1	7	?	-21%
Cc1ccc(S(=O)(=O)CC(=O)NCc2ccccc2)cc1	-1	1.1	?	5	2	-1.6%	-8%
C[C@H]1CN([C@@H](C)CO)C(=O)CCCn2nncc2CO[C@H]1CN(C)S(=O)(=O)c1ccccc1	1	-9.1	.	-1	6	0.7%	.
COc1ccc(S(=O)(=O)N2CCCN(S(=O)(=O)c3ccc(OC)c(C)c3)CC2)cc1C	-3	4.5	-4	9	2	17%[38.3 µM]	-14%
Cc1ccc2cc(C#N)c(NCCCNC(=O)C3CCCO3)nc2c1 (stereo not given)	2	-1.7	-5	-3	7	-3.6%	79µM*
C[C@@H](C(=O)NNC(=O)c1ccc(Cl)cc1)N1C(=O)C2CC=CCC2C1=O (stereo not given in full)	-12	-1.2	.	-5	-14	-2.0%	.
CN(C)/C=C/C(=O)c1ccccc1	4	-0.2	?	-10	12	0.2%	?
CC(=O)c1ccc(N2CCN(S(=O)(=O)c3ccc(-c4cc(C)no4)s3)CC2)cc1	4	3.0	-2	-9	3	4.7%&1.7%	21%
O=C1CCC(C(=O)OCc2nnc(-c3ccccc3)o2)=NN1	2	-5.2	-1	-20	1	2.3%	.
N#C/C(=C\c1c[nH]c2ccc(Br)cc12)c1ccccn1	-16	-0.2	-8	4	-21	0.1%	5%
CCCCOC(=O)c1ccc(NC(=O)c2cc(Cl)ccc2OC)cc1	-5	-1.8	2	-20	22	6.2%	?
O=Cc1cccn1Cc1ccc(Cl)cc1Cl	20	0.5	2	-3	39	3.6%[38.3 µM]	13%
CCOC(=O)C1=NNC(C(=O)O)C1c1ccccc1 (stereo not given)	7	-0.5	.	-22	0	0.0%	.
Oc1ccc(Br)cc1CN1CCCCCCC1	9	-3.1	-1	-22	14	7.6%[38.3 µM]	-6%
Cc1ccc(NC(=O)CN(C)C(=O)c2ccc(C(F)(F)F)cc2)cc1	-1	-3.8	-11	-4	-20	0.9%	6%
Nc1c(CO)nnn1-c1ccccc1	1	-5.9	22	-10	-2	3.2%	?
CCOc1cc(NC(=S)NCC(C)C)c(OCC)cc1NC(=O)c1ccco1	-8	-1.7	-15	-13	-4	15%	18%
Cc1ccccc1-c1nc(CS(=O)CC(=O)NC2CCCC2)c(C)o1 (stereo not given)	-6	-7.1	29	-10	.	1.6%	8%
Cc1cccc(C(=O)NNC(=O)C2CCN(C(=O)OC(C)(C)C)CC2)c1	2	-0.6	-15	-3	13	-0.1%	6%
COc1ccc(C(NC(C)=O)c2cc(Cl)c3cccnc3c2O)cc1OC (stereo not given)	?	-0.1	12	-1	?	-3.6%&0.5%	-20%
O=C(COc1ccc(Cl)cc1Cl)NNC(=S)Nc1ccc(F)cc1	-7	-2.7	9	-32	-14	-3.4%[38.3 µM]	25%
COc1ccc(C(=O)Nc2ccc(F)cc2F)cc1	0	-2.1	-23	6	-10	.	9%
CCN1CCN(c2ccc(NC(=O)c3ccc(OC)c(S(=O)(=O)N4CCCC4)c3)cc2)CC1	5	-7.0	8	-4	5	-1.0%	.
O=C1OCC(c2ccc(Cl)s2)=C1c1ccccc1[N+](=O)[O-]	-23	1.4	-4	-14	0	1.4%	-4%
COc1cc(NC(=O)C2CCCN(S(=O)(=O)c3cccc4nsnc34)C2)cc(OC)c1 (stereo not given)	-9	-1.2	11	-9	-5	-2.5%	7%
NC1=NC(c2ccccc2)CC(=O)N1 (stereo not given)	0	0.9	.	-6	6	3.7%	.
CCOC(=O)C1(Cc2cccc(OC)c2)CCN(Cc2cccc(OCC)c2O)CC1	-22	1.3	-10	-14	5	6.2%	2%
NC(=S)NNc1c(F)c(F)c(F)c(F)c1F	13	-2.3	11	-3	1	2.3%	40µM*
O=C1CN(C(=S)NC(=O)c2ccccc2[N+](=O)[O-])CCN1	9	-5.2	3	-28	33	0.0%	?
Cc1[nH]cnc1C(=O)N/N=C/c1ccc([N+](=O)[O-])s1	-10	9.4	-29	-1	?	3.5%	-29%
C=CCNCCCCOc1cccc(Br)c1	8	-7.9	5	-19	-20	-1.9%	45µM*
CCc1nnc(NS(=O)(=O)c2ccc(NC(=S)NC(=O)/C=C/c3cccs3)cc2)s1	-2	-6.2	16	-6	-10	1.0%	1%
COCC#Cc1ccc2c(c1)O[C@@H](CN(C)S(=O)(=O)c1cccc(F)c1)[C@@H](C)CN([C@H](C)CO)S2(=O)=O	0	-9.6	.	-2	-9	1.9%	.
O=C(NCc1ccncc1)Nc1cc(Cl)ccc1Cl	3	-0.3	-14	-7	9	0.0%	11%
OC(c1ccc(Cl)cc1)c1nnc(-c2ccccc2)o1 (stereo not given)	-9	-4.2	2	-16	-8	-0.3%	14%
COc1ccc(C(=O)NC(=S)NNC(=O)CCc2ccccc2)cc1	-9	-0.7	.	-14	-3	.	10%
CCCc1noc2c1/C(=N\O)CC(c1ccccc1)C2 (stereo not given)	6	2.9	-2	13	20	7.5%	17%
CC[C@@H]1C(c2ccc(F)cc2)=NN(c2ccc(Br)cc2)[C@H]1C(=O)N1CCOC1=O	32	0.4	.	8	26	6.0%	39%[activator]
O=C(O)CNC(=O)CCn1nnc2ccccc2c1=O	-1	-4.5	-7	-6	4	0.4%	27%
O=C(NNC(=O)c1ccccc1F)c1ccc(Cl)c(S(=O)(=O)N2CCOCC2)c1	-2	-1.1	20	-1	-2	-0.6%	.
CC(=O)Nc1cccc(-c2ccnc3c2CC(C)(C(=O)NCCc2ccccc2)O3)c1 (stereo not given)	-2	4.7	.	-5	2	4.5%	.
O=c1c(-c2ccc3c(c2)OCCO3)coc2cc(OC3OC(CO)C(O)C(O)C3O)ccc12 (stereo not given)	3	-1.7	13	-5	9	-0.4%	8%
CC(C)CNC(=O)CN1c2cccc3cccc(c23)S1(=O)=O	-5	-2.0	1	-1	6	0.3%	10%
Cc1ccc(C(=O)N[C@H](C(=O)Nc2sccc2C(N)=O)C(C)C)cc1	10	5.9	-21	-5	0	7.3%	6%
